High-throughput results deposited in PubChem BioAssay by Southern Research Specialized Biocontainment Screening Center.
Mtb bLac sens: beta-lactam sensitization of Mtb H37Rv; inhibition, % at 25 µM; M. tuberculosis H37Rv growth with meropenem, percent inhibition; hits of this screen are not shown here; hit rate 0.27% among 330,000;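 active = about 74% or more and at least 40 points above the plate without the antibiotic, then above 30% in a dose series; inconclusive = first-round hits that could not be retested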;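 also: growth measured after seven days incubation then overnight dye step; 0% = bacteria only wells and 100% = bacteria with antibiotic; twin plates without the antibiotic show which effects depend on it; some results filed as inactive read as strong as hits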
* = called active by the depositor; ? = inconclusive. These rows are one share of the data, so the mix of outcomes need not match the whole.

Compound	Mtb bLac sens
O=C(N[C@H]1C/C=C\C[C@H](CC(=O)N(CCO)Cc2ccccc2)C(=O)NC[C@H](c2ccccc2)OC1=O)OCC1c2ccccc2-c2ccccc21	-1
O=C1/C(=C/c2ccc(O)cc2)COc2ccccc21	9
CCc1[nH]nc(C(=O)N/N=C/c2ccncc2)c1C	3
Cc1ccc(NC(=O)C(C)Sc2nnc(C3CC3)n2C2CC2)cc1S(=O)(=O)N1CCOCC1 (stereo not drawn)	1
Cc1nc(SCc2nc3ccc(F)cc3[nH]2)c2oc3ccccc3c2n1	-1
O=C(NCc1ccc(Cl)cc1Cl)Nc1ccccc1	78
CCN1C(=O)[C@H]2[C@@H](c3ccc(-c4ccccc4)c(OC)c3)N[C@@](CC(C)C)(C(=O)OC)[C@H]2C1=O	-5
Cc1ccccc1SCC(=O)OCC(=O)N1CC(=O)Nc2ccccc21	1
Cc1csc(=O)n1CC(=O)OCC(=O)NCc1ccc(F)cc1	0
NC(=O)C1CCN(c2oc(-c3ccccc3)nc2S(=O)(=O)c2ccc(Br)cc2)CC1	?
CC1CCCCC1NC(=O)COC(=O)CCC(=O)c1cccs1 (stereo not drawn)	-4
NC(Cc1cc(O)c(O)cc1O)C(=O)O (stereo not drawn)	-1
Cc1nn(CC(=O)NC2(C)CCS(=O)(=O)C2)c(C)c1S(=O)(=O)N(C)C (stereo not drawn)	6
Cc1ccc(C(NC(=O)CN2C(=O)NC3(CCCC3)C2=O)c2ccccc2)cc1 (stereo not drawn)	-3
CN(Cc1cccs1)C(=O)c1ccc(Cl)c(S(=O)(=O)N2CCCCCC2)c1	3
CNS(=O)(=O)c1cccc(C(=O)OCC(=O)N2c3ccccc3NC(=O)C2(C)C)c1	-2
COc1ccc(CCNC(=O)COC(=O)c2ccc(F)c(S(=O)(=O)N3CCOCC3)c2)cc1	-6
COc1cc(SC)ccc1C(=O)N1CCCc2ccccc21	5
O=c1[nH]c(=O)c2cn[nH]c2[nH]1	2
O=C(CN1CCN(c2ccc(O)cc2)CC1)Nc1ccc(S(=O)(=O)N2CCCC2)cc1	-5
CCOc1ccccc1C(=O)NCC(=O)N1CCC(C)CC1	-1
CCCNC(=O)C1CC(=O)N(c2ccc(OCc3ccc(Cl)cc3)cc2)C1 (stereo not drawn)	11
C[C@@H](C(=O)NCCc1ccc(F)cc1)N1C(=O)N2CCc3c([nH]c4ccccc34)[C@@]2(C)C1=O	-4
CCOCCCn1c(SC(C)C(=O)NCC2CCCO2)nc2sc(C)c(C)c2c1=O (stereo not drawn)	-7
O=C(c1ccccc1NS(=O)(=O)c1ccc(F)cc1F)N1CCCCC1	-3
Cc1c(C(=O)O)sc(S(=O)(=O)N2CCN(C(=O)Cc3ccccc3Cl)CC2)c1C(=O)O	2
CSc1nc(N)nc2c1ncn2CC(=O)NCc1ccc2c(c1)OCO2	5
Cc1ccc(C)c(NC(=O)CN2C(=O)NC(CCc3ccccc3)C2=O)c1 (stereo not drawn)	1
COc1ccc(CC(=O)OCC(=O)NC2CCCC(C)C2C)cc1 (stereo not drawn)	0
COc1ccc(NC(=O)CCc2nc3ccccc3c(=O)[nH]2)cc1S(=O)(=O)N1CCCCC1	-5
COc1cc2c(cc1OC)C(=O)N1[C@H]3c4ccccc4OC[C@@H]3[C@H](c3ccccc3)[C@]1(C)C(=O)N2	97
Nc1nc(SCC(=O)Nc2ncc(Cl)cc2Cl)n[nH]1	-12
O=C(Nc1ccncc1)C1CCN(S(=O)(=O)c2ccc(Cl)c(C(F)(F)F)c2)CC1	53
C[C@]12CCC3C(C1CCC2=O)[C@H](O)C[C@H]1C[C@@H](O)CC[C@]31C (stereo partly drawn)	-2
CC(=O)c1ccc(OC(C)C(=O)NCC2(N3CCOCC3)CCCCC2)cc1 (stereo not drawn)	-8
Cc1ccc(C(=O)NCC(=O)OCC(=O)c2c(N)n(C)c(=O)n(C)c2=O)cc1C	-4
N#Cc1ccccc1OCC(=O)Nc1nnc(C2CC2)s1	-8
COCCN(C(=O)CSc1nnc(-c2cccc(F)c2)n1N)c1c(N)n(Cc2ccccc2)c(=O)[nH]c1=O	-2
C=CC[C@@H](CC(=O)N(CCO)Cc1ccccc1)C(=O)NC[C@@H](OC(=O)[C@@H](CC=C)CC(=O)OC(C)(C)C)c1ccccc1	-2
O=C(Nc1ccc(Br)cc1)C1C2C=CC3(O2)C1C(=O)N(CCN1CCOCC1)C3C(=O)NC1CCCCC1 (stereo not drawn)	3
CC1(C)CC2CC(C)(CN2S(=O)(=O)c2ccc(F)cc2F)C1 (stereo not drawn)	3
CN(C)S(=O)(=O)c1cc(NC(=O)COC(=O)c2nc(Cl)ccc2Cl)ccc1Cl	-10
N#CCC(=O)Nc1ccc(C(=O)Nc2ccc3c(c2)OCO3)cc1	-5
Cc1cc(NC(=O)c2cccc(C)c2[N+](=O)[O-])no1	-1
COC(=O)C1=C(c2ccc(C(C)=O)cc2)C[C@@H]2CC[C@H]1N2C(=O)NCCNC(C)=O	-5
CN(Cc1ccco1)c1ncnc2ccc(-c3ccc4c(c3)OCO4)cc12	?
C=CC[C@@H](CC(=O)N[C@@H](CO)Cc1ccccc1)C(=O)NC[C@@H](OC(=O)[C@@H](CC=C)Cc1ccc(F)cc1)c1ccccc1	-3
COC(=O)C1=C(N)OC2=C(C(=O)CC(C)(C)C2)C1c1cc2c(cc1Cl)OCO2 (stereo not drawn)	7
O=C(Nc1ccc(Cl)cc1)c1nc[nH]c1C(=O)NCCCNC(=O)c1[nH]cnc1C(=O)Nc1ccc(Cl)cc1	1
CC(=O)C[C@@H](O)CC(=O)[C@@H]1OC(=O)CCCCCCCCc2ccccc21	9
O=C(CCC(=O)N1C[C@H]2C[C@@H](C1)c1cccc(=O)n1C2)NCc1ccccc1C(F)(F)F	-3
Cc1cnc(C(=O)OC(C(=O)c2c[nH]c3ccccc23)c2ccccc2)cn1 (stereo not drawn)	2
C/C=C/C=C/C(=O)O	-1
COC(C(=O)N/N=C(\C)c1ccc(O)cc1)c1ccccc1 (stereo not drawn)	-1
CCOc1ccc(NC(=O)COC(=O)c2ccc3c(c2)OCCO3)cc1	1
O=C(CSc1nnc(Cc2ccccc2)o1)Nc1ccc(N2CCOCC2)cc1	-6
COc1ccc(C(=O)NCc2ccncc2)cc1S(=O)(=O)N1CCOCC1	-10
CC(Sc1ncnc2sc(-c3ccccc3)cc12)C(=O)N1CCNC1=O (stereo not drawn)	0
O=C(O)c1cc(S(=O)(=O)N2CCOCC2)c[nH]1	-7
COCCN(C(=O)CSCc1ccc(C)cc1)c1c(N)n(CC(C)C)c(=O)[nH]c1=O	3

(next part)
Compound	Mtb bLac sens
COc1ccc(CN2C(=O)C(C)Nc3ncnc(N4CCOCC4)c32)cc1 (stereo not drawn)	-8
COc1cc(OC)cc(-c2c(C#Cc3ccsc3)c3cc(-c4cccc5[nH]cc(C=O)c45)ccc3n2C)c1	1
O=C(NC(Cc1ccccc1)C(=O)N1CCN(S(=O)(=O)c2ccccc2F)CC1)c1ccccc1 (stereo not drawn)	-10
COc1ccc2c(c1OC)C(=O)O[C@@H]2[C@H]1c2cc3c(cc2CCN1C)OCO3	2
O=C(Nc1cccc(S(=O)(=O)N2CCCCC2)c1)c1cncc(Br)c1	-1
O=C(Nc1ccc(F)c(F)c1)C1CCCCC1	-5
O=C(COC(=O)CCNS(=O)(=O)c1cccs1)Nc1ccccc1	2
COc1ccc([C@H](OC)[C@@]2(Cc3ccc(O)cc3)N=C(N)N(C)C2=O)cc1	-9
CC(C(=O)OCC(=O)N1CCN(c2ccccc2)CC1)N1C(=O)c2ccccc2C1=O (stereo not drawn)	-6
Cc1cccn2c(=O)c(/C=C(\C#N)C(=O)NC3CCS(=O)(=O)C3)c(Oc3ccccc3Cl)nc12 (stereo not drawn)	4
CC(=Nc1ccc(F)cc1)c1c(O)n(C)c(=O)[nH]c1=O	-1
COc1ccc(/C=C/C(=O)OCC(=O)N2CCCCCC2)cc1OC	-1
CC(C)C(NC(=O)c1c(F)cccc1F)C(=O)N1CCN(S(=O)(=O)c2ccc(F)cc2)CC1 (stereo not drawn)	1
CCC1(C)NC(=O)N(CC(=O)Nc2cc(C)on2)C1=O (stereo not drawn)	-11
CN(CC(=O)Nc1ccc(F)cc1)C(=O)Cn1c(=O)oc2ccccc21	-6
CCCNC(=O)c1n[nH]c2c1CC(C(C)(C)CC)CC2 (stereo not drawn)	6
CCCCC1CCC(C(=O)N(C)CC(=O)Nc2cccc(F)c2)CC1 (stereo not drawn)	3
COc1cc(C(=O)OCC(=O)N2CCC(C)CC2)cc2c1OCCO2	0
COc1ccc(-c2csc3ncnc(NCCO)c23)cc1	0
COc1ccc(NC(=O)N(C)C[C@H]2Oc3ccc(NC(=O)C4CCCCC4)cc3C(=O)N([C@H](C)CO)C[C@@H]2C)cc1	7
CC(NC(=O)COC(=O)CCN1C(=O)C2CC=CCC2C1=O)c1ccc(Br)cc1 (stereo not drawn)	-1
CCCOc1ccc(-c2cc3onc(-c4ccccc4)c3c(=O)n2C)cc1	4
O=C(COC(=O)c1ccco1)NC12CC3CC(CC(C3)C1)C2	-11
C[C@@]12C(=O)N(c3cccc(Cl)c3)C(=O)N1[C@@H]1c3ccccc3OC[C@@H]1[C@H]2c1ccccc1	1
CC(C)C(NC(=O)c1ccccc1)C(=O)NC1CCCc2ccccc21 (stereo not drawn)	1
O=C(NCCc1ccc(Cl)cc1)c1ccc2c(c1)OCCO2	5
C=CCC[C@@H](Cc1ccc(F)cc1)C(=O)OCCNC(=O)[C@@H](CC=C)CC(=O)N(CCO)Cc1ccccc1	-2
CCCN(CC(=O)Nc1ccccc1OC)C(=O)CSC(=S)N1CCCC1	4
Cc1cccc(/C=N/NC(=O)c2ccc(NC(=O)c3ccccc3C)cc2)n1	5
O=C(COC(=O)c1cc2ccccc2cc1O)Nc1ccccc1F	64
CCCCN1CCN=C1N(C)C	-2
COc1cccc(OCC(=O)NCC2CCCO2)c1 (stereo not drawn)	-7
Cc1nc(SC(C)C(=O)NC2CCCC2)c2ccccc2n1 (stereo not drawn)	1
CC(=O)c1ccc(NC(=O)CN2C(=O)NC3(CCCc4ccccc43)C2=O)cc1 (stereo not drawn)	-1
Cc1ccc(N(CC(=O)NCc2ccc3c(c2)OCO3)C(=O)c2csnn2)cc1	-7
C#CCOCCOCCOCCNc1nc(N2CCN(C(=O)[C@H](CCCCN)n3cc([C@@H](N)CO)nn3)CC2)nc(N2CCN(C(=O)[C@H](CCCCN)n3cc([C@@H](N)CC(C)C)nn3)CC2)n1	5
O=C1C=C(c2cc(Cl)cc(Cl)c2)C[C@@H](c2ccc(F)cc2)C1	9
CNc1ncnc2c1ncn2[C@@H]1O[C@H](CO)[C@@H](O)[C@H]1O	99
COc1ccc(/C=C/C(=O)Nc2cc(S(=O)(=O)N3CCOCC3)ccc2OC)cc1	-5
Cc1cc(=O)[nH]c(SCCc2ccccc2)n1	-9
COCCN(C(=O)c1ccc(COc2ccccc2)o1)c1c(N)n(CC(C)C)c(=O)[nH]c1=O	-2
Cc1cc(NC(=O)COC(=O)/C=C/c2ccc(C)o2)no1	5
CN(C(=O)CSc1cccc[n+]1[O-])c1ccccc1	-9
O=NN1CCN(c2ccncc2S(=O)(=O)N2CCCCC2)CC1	?
Cn1cnc(C(=O)N2CCc3ccccc3C2)c1C(=O)N1CCc2ccccc2C1	-10
COC(=O)C1=CO[C@@H](O)C2C(CO)=CCC12 (stereo partly drawn)	0
CCCN1C(=O)C(=O)c2cc(C)ccc21	7
Cc1cc(C(=O)COC(=O)CC(NC(N)=O)c2ccc(Cl)cc2)c(C)n1C (stereo not drawn)	1
CC(OC(=O)Cn1[nH]c(=O)c2ccccc2c1=O)C(=O)Nc1ccc(Cl)cn1 (stereo not drawn)	-8
Cc1ccc2c(=O)n3c(nc2c1)C(Cc1ccccc1)NC(=O)c1cc(Cl)ccc1-3 (stereo not drawn)	-4
CCC(=O)N1CCc2cc(Br)cc(S(=O)(=O)N3CCC(C(=O)NCCCOC(C)C)CC3)c21	3
CC(C)Cc1nccs1	-2
CN(C1CCCCC1)S(=O)(=O)c1cccc(C(=O)Nc2ccccn2)c1	2
CC1=C2[C@H]3OC(=O)[C@@H](C)[C@@H]3CC[C@@]2(C)C=CC1=O	4
CC(C)[C@H](NS(=O)(=O)c1ccc(Cl)cc1)C(=O)OCC(=O)c1c(N)n(C)c(=O)n(C)c1=O	5
Cc1ccc2c(c1N)C(=O)c1ccccc1C2=O	10
COc1ccc(C(=O)OCC(=O)c2ccc(F)cc2)cc1OC	10
O=C(CCl)N1CCN(C(=O)C2COc3ccccc3O2)CC1 (stereo not drawn)	86
